# D2 ag: human D2 receptor agonism in beta-arrestin assay | P14416 | 360,000 tested, 0.084% active | activation, % (no concentration beside the values) | DiscoveRx PathHunter D2 beta-arrestin, luminescence, 90 min; 100% = 57 uM dopamine signal | AID 624465; in the data active = activation above about 40%; inconclusive = about 15% to 40%; inactive = below about 15%; further: compound concentration not given in the record; the text of the record calls up to 30% inactive
#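 Agonist mode: compounds alone added to overnight-plated D2 PathHunter cells for 90 min at 37 C, with 57 uM final dopamine (EC100) defining full response. Beta-arrestin recruitment detected by chemiluminescent reagent, read after 1 h at ambient temperature.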
# gsp antagonist: antagonists of gsp mutant (McCune-Albright syndrome); gsp-mutant cells, cAMP HTRF, 30 min; control for the full effect not named in the record; Potency, µM (titrated, usually from 76.9 µM), for inactives: at the highest dose activity change, negative = inhibition, usual class: inhibitors; 340,000 tested, 0.4% active; AID 624288; active = falling curve of any shape with a large fitted effect; inconclusive = falling curve, mostly with a smaller effect; inactive = flat or rising curve; cell line not stated here;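 further: intracellular cAMP measured with PDE inhibitor Ro 20-1724 present during compound exposure; potency means the concentration at half of the fitted maximal effect; on the % scale 0 is the no-effect control and ±100 the full control effect; nearly all actives have a fitted effect of over 65% in size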
#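 Cells in G418 medium, seeded 16-24 h, 37C; buffer exchange to DPBS + 1 mM CaCl2, 0.5 mM MgCl2, 0.05% BSA; cpds in DMSO + […] (300 uM stock), 30 min 37C; HTRF cAMP detection.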
# gsp ag: agonists of gsp mutant (McCune-Albright syndrome) | Potency, µM (doses to about 76.9 µM), inactives show at the top dose activation (cAMP increase), actives largely listed as activators | 340,000 tested, 0.13% active | gsp mutant cells, cAMP HTRF, 30 min; control for the full effect not named in the record; active = well fitted activation curve with a large enough effect; inconclusive = small, poorly fitted or top-dose-only effect, or another doubt; inactive = no such curve, though single readings can be large or run the other way; cell line not stated here;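 further: phosphodiesterase inhibitor Ro 20-1724 added with compounds to block cAMP breakdown; potency means the concentration at half of the fitted maximal effect; nearly all actives have a fitted effect of over 60% in size; about a fifth of the inactives were tested at one dose only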
#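 Cells in DMEM/10% FBS with G418 were pretreated with compounds in DMSO plus […] (300 uM stock) for 30 min at 37C. cAMP was measured by HTRF (cAMP-d2 plus anti-cAMP antibody-K) after 30 min at room temperature.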
# D2 potentiator: human D2 receptor positive allosteric modulation; P14416; 360,000 tested, 0.23% active; potentiation, % (test concentration not listed); DiscoveRx D2 beta-arrestin cells, luminescence, 90 min; 100% = 57 uM dopamine signal; AID 624464; active = potentiation of 50% or more; inconclusive = 30% to 50%; inactive = 30% or less;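 further: compound concentration not given in the record; tested on top of an EC20 dose of dopamine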
#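 PathHunter D2 cells, attached overnight at 37 deg C, received compound in DMSO plus dopamine at EC20 (50 nM final) for 90 min at 37 deg C. Beta-arrestin recruitment was read as luminescence after 1 h with detection reagent at ambient temperature.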
# Six1-Eya2 inh: Six1/Eya2 interaction inhibition | Q15475+O00167 | AlphaScreen GST-Six1/His-Eya2 binding, biochemical; stronger effect = lower value; control for the full effect not named in the record | AID 651725 | 360,000 tested, 0.56% active | activity change, % (test concentration not listed); in the data active = activity change below about -65%; inconclusive = about -30% to -65%; inactive = above about -30%; further: on the % scale 0 is the no-effect control and ±100 the full control effect; compound concentration not given in the record
# Target sequence (O00167 whole entry, looked up): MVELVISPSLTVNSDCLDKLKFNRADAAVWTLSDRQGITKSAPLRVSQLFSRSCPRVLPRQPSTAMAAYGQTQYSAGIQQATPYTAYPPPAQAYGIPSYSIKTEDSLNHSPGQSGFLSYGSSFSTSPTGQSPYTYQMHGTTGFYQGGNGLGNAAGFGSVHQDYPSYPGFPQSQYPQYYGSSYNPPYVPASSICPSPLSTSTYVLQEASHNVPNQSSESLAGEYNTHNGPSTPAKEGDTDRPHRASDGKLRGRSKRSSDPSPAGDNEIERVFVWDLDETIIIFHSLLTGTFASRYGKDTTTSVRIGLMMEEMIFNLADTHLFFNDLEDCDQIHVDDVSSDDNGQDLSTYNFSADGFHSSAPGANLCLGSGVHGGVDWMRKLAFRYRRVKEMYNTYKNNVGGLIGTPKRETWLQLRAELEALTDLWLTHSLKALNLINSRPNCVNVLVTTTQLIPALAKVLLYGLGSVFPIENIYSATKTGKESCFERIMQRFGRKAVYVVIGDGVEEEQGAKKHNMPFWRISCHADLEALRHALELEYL
# Target sequence (Q15475 whole entry, looked up): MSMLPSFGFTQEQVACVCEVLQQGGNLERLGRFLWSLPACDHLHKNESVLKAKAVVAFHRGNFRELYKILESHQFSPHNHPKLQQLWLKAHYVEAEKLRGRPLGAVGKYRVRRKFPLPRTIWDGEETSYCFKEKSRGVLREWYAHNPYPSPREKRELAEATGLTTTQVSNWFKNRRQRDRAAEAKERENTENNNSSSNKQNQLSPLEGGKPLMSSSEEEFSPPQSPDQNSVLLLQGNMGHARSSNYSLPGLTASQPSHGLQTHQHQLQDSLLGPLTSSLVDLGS
#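 Compounds are tested against tagged Six1 and Eya2 proteins bridged by glutathione donor and nickel acceptor beads; after a one-hour incubation at 37 °C without light, AlphaScreen emission is recorded.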
# CtBP-E1A blk: blocks the CtBP interaction with E1A; 340,000 tested, 0.49% active; activity change, % (no concentration beside the values); AID 651724; AlphaScreen GST-E1A/His-CtBP binding, 1536-well; stronger effect = lower value; control for the full effect not named in the record; in the data active means activity change below about -65%; inconclusive means about -30% to -65%; inactive means above about -30%; further: on the % scale 0 is the no-effect control and ±100 the full control effect; compound concentration not given in the record
#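 Steps: dispense buffer (Tris pH 8.0, NaCl 300 mM, TCEP 1 mM, BSA, Tween 20); add 5X protein mix (GST-E1A, His-CtBP, 125 nM each); pin 23 nL compound; 2 h at 37 °C, dark; add 5X beads (50 ug/mL); 1 h; read.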
# * hit, by the source's call; ? = inconclusive; / = not tested or not shown; [ ] = another dose, or the depositor's remark.
cpd	smiles	D2 ag	gsp antagonist	gsp ag	D2 potentiator	Six1-Eya2 inh	CtBP-E1A blk
1	O=C(NCc1ccccc1)c1csc2c1CCCC2	3.7	-11%	-53%[inhibitor]	0	2	/
2	O=C(CN1CCN(CC(=O)Nc2ccccc2Cl)CC1)NCC1(N2CCCCC2)CCCCC1	2.1	1%	-3%	-4	1	/
3	COCCN1C[C@@H](CO)O[C@@H](n2cnc3c(NC4CC4)ncnc32)C1	6.1	/	/	-5	13	0
4	CCC1(C)CC(CCNS(=O)(=O)c2ccc(C)cc2)(c2ccc(C)cc2)CCO1 (stereo not given)	-1.8	-10%	-1%	-16	-2	3
5	O=C(NCc1ccc2c(c1)OCO2)c1ccc(Br)s1	-2.8	11%	6%	-2	2	-7
6	CSc1ccccc1C(=O)C1CCCN(C(=O)c2cccc(Cn3cccn3)c2)C1 (stereo not given)	1.1	/	-58%[inhibitor]	-21	-19	-7
7	CCN(c1ccc(NC(=O)c2ccc(Cl)nc2)cc1)C(C)C	0.6	18%	-11%	-15	-13	12
8	C[C@H]1CN([C@@H](C)CO)C(=O)CCCn2nncc2CO[C@H]1CN(C)S(=O)(=O)c1ccc(Oc2ccccc2)cc1	-3.0	/	-28%	-3	-7	4
9	CS(=O)(=O)NCCCNc1ccc(C(F)(F)F)cc1[N+](=O)[O-]	-1.0	1%	24%	-9	10	2
10	O=C(c1ccc(S(=O)(=O)N2CCCCC2)cc1)N1CCCC(C(F)(F)F)C1 (stereo not given)	-2.6	17%	-52%	-6	-1	3
11	COC(=O)C1=CCCCC(O)=C1C(=O)OC	-2.1	/	4%	-6	6	-8
12	Cc1ccc(NC(=O)CS(=O)CC(=O)N2CCN(C3CCCC3)CC2)cc1 (stereo not given)	-3.0	-4%	-3%[15.4 µM]	-5	-1	-6
13	COc1ccc(-c2cnn3c(N)c(S(=O)(=O)C(C)(C)C)cnc23)cc1	-4.6	-10%	-3%	-17	-1	5
14	CC(C)(C)c1ccc(C(=O)Nn2cnnc2)cc1	2.3	10%	-34%[inhibitor]	-2	1	0
15	O=c1c2ccccc2oc2cc(C#Cc3ccccn3)ccc12	-1.4	1%	/	-7	6	3
16	Nc1nc(NC(=O)c2ccco2)nn1-c1ccccc1	1.4	6%	-2%	-11	-1	-14
17	COc1ccc(-n2c(SCC(=O)Nc3cc(C)on3)nc3c(c2=O)SC(C)C3)cc1 (stereo not given)	-2.8	/	?	-10	4	-5
18	CC(C)C(=O)N1CCC(n2nccc2NC(=O)CCc2ccccc2)CC1	4.1	15%	14%	-6	6	-6
19	COc1ccc(NC(=O)CNC(=O)Cc2ccccc2)cc1OC	-2.4	3%	-15%	-3	11	5
20	Cn1c(=NC(=O)C2CCCCC2)sc2cc([N+](=O)[O-])ccc21	-0.3	3%	22%	-4	-8	-3

# Random excerpt: 2 compounds from above
cpd	smiles	D2 ag	gsp antagonist	gsp ag	D2 potentiator	Six1-Eya2 inh	CtBP-E1A blk
17	COc1ccc(-n2c(SCC(=O)Nc3cc(C)on3)nc3c(c2=O)SC(C)C3)cc1 (stereo not given)	-2.8	/	?	-10	4	-5
6	CSc1ccccc1C(=O)C1CCCN(C(=O)c2cccc(Cn3cccn3)c2)C1 (stereo not given)	1.1	/	-58%[inhibitor]	-21	-19	-7

# New compounds follow.
cpd	smiles	D2 ag	gsp antagonist	gsp ag	D2 potentiator	Six1-Eya2 inh	CtBP-E1A blk
21	CSc1nc(C)cc(Oc2ccc(=O)[nH]n2)n1	1.1	2%	?	-4	0	2
22	O=C(NCCc1csc(-c2ccccc2)n1)c1c(F)cccc1F	-4.1	-8%	6%	-6	1	-2
23	Cc1ccc(CSc2nc3ccccc3c(=O)n2CCCC(=O)NCc2ccco2)cc1	-2.2	-5%	2%	-8	4	3
24	Cc1ccc(OCCCC(=O)Nc2nccs2)cc1	-4.5	-4%	-23%	-5	-13	-4
25	COC(=O)CC1C(=O)NCCN1C(=O)CSc1nc2ccccc2c(=O)n1CC(C)C (stereo not given)	3.4	-28%	24%[15.4 µM]	-1	-9	-7
26	CC1(NC(=O)Cn2cc(C(F)(F)F)ccc2=O)CCS(=O)(=O)C1 (stereo not given)	-1.8	11%	20%	-13	8	-4
27	O=C(O)c1cc(N/N=C2/CC(c3ccccc3)Oc3ccccc32)ccc1Cl (stereo not given)	2.4	-9%	35%	-8	?	?
28	Cn1c(-c2sc(=S)n(-c3ccccc3)c2N)nc2ccccc21	-4.4	1%	-2%	-10	-4	-12
29	COn1c(-c2ccc(Cl)cc2Cl)nc2ncccc21	-1.1	-8%	0%[15.4 µM]	-7	-3	-1
30	CCNC(=O)C1(C)CCN(C(=O)c2ccc(C#N)cc2)C1 (stereo not given)	-2.5	/	/	-9	6	-13
31	CCCCN(C)CCCNC(=O)c1ccc2c(c1)N(CC)C(=O)c1ccccc1S2=O (stereo not given)	-3.6	7%	20%[15.4 µM]	-19	4	3
32	CC(C)(C)N(NC(=O)OCc1ccccc1)C(=O)c1ccccc1Cl	-5.8	3%	-82%[inhibitor]	-8	1	2
33	CC(=O)c1ccc(NC(=S)Nc2ccc(N3CCOCC3)cc2)cc1	2.5	3%	3%[15.4 µM]	-6	-5	-11
34	Cc1cccc(CN(C)C[C@H]2OCc3cnnn3CCCC(=O)N([C@H](C)CO)C[C@@H]2C)c1	-6.1	/	-81%[inhibitor]	-6	-3	5
35	Cc1nc2nc(SCC(=O)c3ccccc3)[nH]c2cc1Br	-6.0	-35%	6%[15.4 µM]	1	-7	-2
36	Cn1ncc(N=Cc2ccccc2O)c1C(=O)N1CCOCC1	0.1	-3%	13%[15.4 µM]	-8	2	10
37	CC(NC(=O)c1ccc(OC2CCN(Cc3ccccn3)CC2)cc1)c1ccccc1 (stereo not given)	-2.7	12%	-6%[15.4 µM]	-6	-16	8
38	Cc1nn(-c2ccccc2Cl)c(Cl)c1/C=N/Nc1nc2ccccc2s1	-0.3	8%	10%	-8	-11	6
39	COc1ccc(CCN2CNc3c(c(=O)n(C)c(=O)n3C)C2)cc1	-1.3	11%	11%	0	4	-2
40	Cc1ccc(C)c(-n2c(SCC(=O)NCC3CCCO3)nnc2-c2ccoc2C)c1 (stereo not given)	0.1	-22%	18%	-7	-3	1
41	CCOC(=O)Cn1c(S(=O)(=O)Cc2cccc(F)c2)nc(-c2ccccc2)c1-c1ccccc1	0.8	-19%	-2%	7	-8	-4
42	COc1ccc(CC(=O)OCC(=O)c2ccc(OC)c(OC)c2)cc1	-0.4	-9%	7%	-5	-2	-1
43	Cc1c2cnn(CC(=O)Nc3cccc(C(F)(F)F)c3)c(=O)c2c(C)n1Cc1ccccc1F	-5.1	4%	?	-14	-8	17
44	Cc1ccc(Nc2nc(N)nc(CC#N)n2)cc1	-1.3	4%	-19%	-9	3	4
45	CCN(CC)C(=O)C1CCCN(C/C(C)=C/c2ccccc2)C1 (stereo not given)	-2.7	0%	11%	-26	-1	5
46	COc1ccccc1N1C(=O)C(Cl)=C(Nc2ccccc2O)C1=O	-1.2	-3%	-4%[15.4 µM]	-4	-11	-1
47	CCC(=O)N1CCCC(C)(C(=O)Nc2ccc(C)c(C)c2)C1 (stereo not given)	-5.0	/	/	-9	-8	-5
48	O=C(CN1CCN(c2ccc(F)cc2)CC1)Nc1ccccc1	-3.0	9%	-12%	-4	0	5
49	O=C(O)COc1ccc(=O)n(-c2ccccc2)n1	-1.2	21%	-10%	-5	21	0
50	CCOC(=O)c1sc(=S)n(CC)c1NC(=O)c1ccccc1	-2.0	0%	-3%[15.4 µM]	-7	8	0
51	O=C(O)Cc1coc2cc3c(cc12)CCC3	-8.0	-6%	-17%[15.4 µM]	-2	13	7
52	CCN(C(=O)CSc1nnc(-c2ccco2)n1Cc1ccccc1)C1CCS(=O)(=O)C1 (stereo not given)	-2.3	-14%	-22%[15.4 µM]	1	10	-23
53	O=C(CCNC(=O)c1ccccc1)Nc1ccc(Cl)c(S(=O)(=O)N2CCCCC2)c1	1.1	-14%	-4%[15.4 µM]	-14	-12	3
54	O=C(N/N=C/c1ccccn1)c1cc(-c2ccc(Cl)s2)[nH]n1	0.7	-3%	-4%	-9	?	?
55	Cc1ccc(C(C(=O)NCc2ccco2)N(Cc2ccco2)C(=O)CNC(=O)c2ccco2)cc1 (stereo not given)	-3.2	-8%	1%	-3	-5	-2
56	O=C(CNC(=O)c1ccccc1F)NCCOc1cccc(Cl)c1Cl	2.1	1%	-43%	-19	5	-12
57	COc1cccc(C(=O)NCC2(c3ccccc3)CCCC2)c1	-1.2	/	-1%[15.4 µM]	-1	20	2
58	N#Cc1c(SCC(N)=O)nc2c(c1-c1ccc(O)cc1)CCCC2	1.6	-7%	-25%	-4	-2	0
59	NC(=O)CN1N=C(c2cc(Cl)sc2Cl)CSC1=O	-2.6	-9%	-13%	6	3	0
60	C=C1CC2C3CC[C@@]4(OCOC45COCO5)[C@@]3(C)C(O)CC2[C@@]2(C)CCC(=O)C=C12 (stereo not given in full)	8.3	-25%	-6%	14	-1	6
61	O=C(Nc1ccc(Cl)cn1)c1cccc2c(Br)cccc12	-1.3	9%	?	-8	11	13
62	Clc1cccc(OCCCn2ccnc2)c1	1.2	-6%	3%	0	-1	/
63	O=C(N/N=C/c1ccc(O)c2ccccc12)c1cccnc1	-1.2	-8%	-8%	4	-6	-9
64	CC(C)N(C(=O)c1ccc2nc(-c3ccccc3)c(-c3ccccc3)nc2c1)C(C)C	-1.2	?	8%	-14	-2	-6
65	O=S(=O)(c1ccc2c(c1)CCN2)N1CCOCC1	-0.4	-3%	-43%[inhibitor]	1	3	-1
66	Cc1cc(=O)oc2c3c(cc(OCC(=O)N[C@@H](CC(C)C)C(=O)O)c12)OC(C)(C)CC3	3.7	-11%	20%[15.4 µM]	-4	12	2
67	COCCn1c(SCC(=O)c2ccc(F)cc2)nnc1C(C)C	-3.2	3%	24%	-17	6	-4
68	CC(C)OC(=O)CC(=O)CSc1nc2c(cc1C#N)CCCCC2	-1.8	-6%	4%	3	9	-1
69	O=C(NC1CCCC1)C1CCC(=O)N1C1CCCCC1 (stereo not given)	-4.1	5%	-8%[15.4 µM]	-3	-2	7
70	Cc1cc(NC(=O)COC(=O)CCCOc2ccc(Cl)cc2C)no1	-1.0	6%	-2%	-6	-9	-2
71	COc1ccc(N2C(=O)C(CC(N)=O)N(NC(=O)CCc3ccccc3)C2=O)cc1 (stereo not given)	-7.2	9%	-44%[inhibitor]	-8	-4	3
72	CCN1CCCC1CNS(=O)(=O)c1ccc(Cl)c(C(F)(F)F)c1 (stereo not given)	-4.6	6%	1%[15.4 µM]	-12	4	-1
73	N#Cc1ccc(Oc2nc(C#N)cc(-c3ccccc3)n2)cc1	-1.8	1%	-13%	-7	0	-3
74	Cc1cc(C(=O)OCC(=O)NC2(C#N)CCCCC2)c(C)o1	-0.2	1%	3%	-5	-2	2
75	Cc1cc(C)cc(OCC(=O)OC/C(O)=C(\C#N)c2nc3ccccc3[nH]2)c1	-2.0	2%	-35%[inhibitor]	22	-11	-21

# From PubChem BioAssay
